Bioassay records deposited in PubChem by National Center for Advancing Translational Sciences (NCATS).
Vaccinia mCherry = inhibitors of vaccinia virus infection (mCherry reporter signal) | AID 720579 | Vaccinia virus mCherry reporter infection, fluorescence; about a quarter of the inactives have no number | Potency, µM (series often up to 36.5 µM), for the others: top-dose activity change, negative = inhibition, actives largely listed as inhibitors | hit rate 0.63% among 310,000; active = well fitted inhibition curve with a large enough effect; inconclusive = small, poorly fitted or top-dose-only effect; inactive = no such curve, though single readings can be large or run the other way; tested in A549 cells; note: nearly all actives have a fitted effect of over 35% in size; inactives centre near -10
Vaccinia Venus = vaccinia inhibition (Venus reporter); Vaccinia virus Venus reporter expression, fluorescence; Potency, µM (doses to about 36.5 µM), without a hit: at the highest dose activity change, negative = inhibition, most hits filed as inhibitors; hit rate 0.46% among 330,000; active means well fitted inhibition curve with a large enough effect; inconclusive means small, poorly fitted or top-dose-only effect; inactive means no such curve, though single readings can be large or run the other way; tested in A549 cells; note: nearly all actives have a fitted effect of over 30% in size; inactives centre near -10
Numbers without * were called inactive; i = inactive; ? = inconclusive; · = not tested or not shown; & = joins results of further samples; [ ] = another dose, or the depositor's remark. % is set by controls: 0 for no effect and ±100 for the full control effect; potency is the fitted concentration of half-maximal effect. Hits appear at their usual frequency; 0.87% or so of the library scored in one or more.

Value order: Vaccinia mCherry, Vaccinia Venus
CCc1ccc(NC(=O)c2cnccn2)cc1
 : i, -14%
COCc1n[nH]c(=S)n1-c1ccccc1
 : -1%, 4%
O=C(NCc1ccc(F)cc1)c1ccc2oc(=O)n(Cc3ccccc3)c2c1
 : -11%, 4%
CCn1c(=O)c(C(=O)CN2CCN(S(=O)(=O)c3ccc(C)cc3C)CC2)c(N)n(Cc2ccccc2)c1=O
 : -29%, ?
CC(C)Oc1ccc(S(=O)(=O)N2CCOCC2)cc1NC(=O)c1ccc(N2CCCC2=O)cc1
 : i, -13%
Cc1cc(S(=O)(=O)n2ccnc2)c(Cl)cc1Cl
 : -27%, -2%
Cc1ccc(C=Nc2ccccc2C(N)=O)s1
 : ?, -29%
COc1ccc(NC(=O)Cn2cnc3ccc(S(=O)(=O)N4CCC(C)CC4)cc3c2=O)cc1Cl
 : -19%, -12%
Cc1cccc(N(C(=O)c2ccc(Cl)cc2)C2CS(=O)(=O)CC2OC(=O)c2ccc(Cl)cc2)c1 (stereo unspecified)
 : i, -19%
O=C1CC(N2CCOCC2)C(=O)N1c1ccc(Cl)cc1 (stereo unspecified)
 : -10%, -3%
COc1ccccc1C(=O)Nc1ccc(S(=O)(=O)Nc2cc(C)nc(C)n2)cc1
 : -2%, -1%
CCN(CC)CCCN1C(=O)c2oc3ccccc3c(=O)c2C1c1cccc(OC)c1OC (stereo unspecified)
 : -14%, -5%
Cc1cccc2cc3c(N)c(C(=O)N4CCOCC4)sc3nc12
 : ?, ?
Cc1c(C(=O)NC(C)c2ccccc2)sc2ncnc(N(C)C3CCCCC3)c12 (stereo unspecified)
 : -17%, -9%
Cc1cnc(C)c(Nc2nc(C(N)Cc3ccc(Cl)cc3)cs2)n1 (stereo unspecified)
 : -8%, -29%

Profiles, looked up by structure. Values in the order: Vaccinia mCherry, Vaccinia Venus
Record of `O=C(NCc1ccc(F)cc1)c1ccc2oc(=O)n(Cc3ccccc3)c2c1` → -11%, 4%
Record of `CCc1ccc(NC(=O)c2cnccn2)cc1` → i, -14%
Record of `COc1ccc(NC(=O)Cn2cnc3ccc(S(=O)(=O)N4CCC(C)CC4)cc3c2=O)cc1Cl` → -19%, -12%
Record of `COCc1n[nH]c(=S)n1-c1ccccc1` → -1%, 4%

Following part.
Value order: Vaccinia mCherry, Vaccinia Venus
CCN(CC(=O)Nc1c(F)cccc1F)C(=O)CSc1nnc(-c2ccco2)n1CC
 : -17%, -12%
O=C(CN1CCCCCC1)NC(c1ccccc1)c1ccccc1
 : -23%, -18%
Cc1ccc(C)c(S(=O)(=O)N2CCCN(C)CC2)c1
 : -15%, -7%
COc1cc(/C=N/Nc2ccc(C(F)(F)F)cn2)ccc1O
 : -5%, -13%
COc1ccc(NC(=O)c2cc(C3CCCCN3C(=O)OCCF)on2)c(C)c1 (stereo unspecified)
 : i, -4%
CC1=C(C)CC(C(=O)NNC(=O)c2ccccc2)C(C(=O)O)C1 (stereo unspecified)
 : ·, 1%
Cc1ccc(C)c(NC(=S)N/N=C/C(C)c2ccccc2)c1 (stereo unspecified)
 : 1%, 1%
Cc1cccc(N(C)S(=O)(=O)c2ccc3c(c2)C(C)(C)C(=O)N3C)c1
 : i, 2%
CC1=C(C(=O)Nc2cccc(C(F)(F)F)c2)C2(CCN(C(C)C)CC2)OC1=O
 : -11%, -7%
COc1cccc(Nc2nc(C(N)c3ccccc3Cl)cs2)n1 (stereo unspecified)
 : -16%, ?
O=C(C1CCCCC1)N1C[C@@H](O)[C@H](n2cc(-c3ccc(F)cc3)nn2)C[C@@H]1c1ccccc1
 : -6%, -17%
CC(=O)NC(C)(c1ccccc1)c1nc(-c2ccncc2)cs1 (stereo unspecified)
 : 31%[activator], -3%
Cc1cc(O)ccc1N/C=C1\CCCC1=O
 : 8%, 8%
CC(=O)N1CCN(C(=O)c2[nH]c(C(F)(F)F)nc2-c2ccccc2)CC1
 : 3%, 1%
O=C(NNC(=O)c1csc(N2CCOCC2)n1)c1ccc(Cl)nc1
 : -10%, -3%

(list continues)
Value order: Vaccinia mCherry, Vaccinia Venus
COCCC(=O)N1CCC(Oc2ccc(C(=O)NC(C)CCn3cccn3)cc2)CC1 (stereo unspecified)
 : i, -9%
CCOC(=O)C1CCCN(C(=O)/C=C/c2cc(OC)c(OC)c(OC)c2)C1 (stereo unspecified)
 : i, -1%
CCOC(=O)c1c(NC(=O)CS(=O)(=O)c2cn(CC)c3ccccc23)sc2c1CCCC2
 : -15%, -25%
Cc1noc(NS(=O)(=O)c2ccc(NC(=O)COc3ccccc3Br)cc2)c1C
 : -8%, 7%
O=C(NC(=S)NCc1ccco1)c1ccc(Br)cc1
 : i, -6%
CCOC(=O)Cn1c(=O)n(CC2CCCO2)c2nc(-c3ccc(OCC)cc3)nc(C(N)=O)c21 (stereo unspecified)
 : ?, ?
Cc1cccc(N(C)C(=O)CS(=O)(=O)c2cccc3nsnc23)c1
 : -2%, -10%
COc1cccc(C(=O)Nc2nnc(SCC(=O)Nc3ccc(NC(C)=O)cc3)s2)c1
 : -11%, -2%
CCOc1ccc(NC(=O)c2ccc(NC(=O)CN3C(=O)C(=O)N(CC(C)C)C3=O)cc2)cc1
 : i, -16%
O=C(COC(=O)c1cccc(Cl)c1)NC(=O)NCc1ccccc1
 : -14%, -12%
CC1(C)CC(=O)C=C(c2cccc(CO)c2)C1
 : -7%, 1%
Cc1ccc(CNC(=O)c2cc3sc(Cl)cc3n2C)cc1
 : -6%, 1%
COC(=O)C1=C(O)CSC1=Nc1ccccc1
 : ·, -7%
CCOc1ccc(NC(=O)CN(C)S(=O)(=O)c2cnc[nH]2)cc1
 : -9%&-8%, 1%&-7%
CC(=O)N1CCCc2cc(S(=O)(=O)N3CCC(N(C)C(C)C)CC3)ccc21
 : -5%, 4%

Further records:
Value order: Vaccinia mCherry, Vaccinia Venus
CC1CCCC(C)N1C(=O)c1cc2ncc(CCCl)cn2n1 (stereo unspecified)
 : -13%, -8%
Cn1ccc2cc(S(=O)(=O)N3CCCN(C(=O)Nc4ccc(Br)cc4)CC3)ccc21
 : -19%, -11%
CNC[C@@H]1OCc2ccccc2-c2ccccc2C(=O)N([C@H](C)CO)C[C@@H]1C
 : -4%, -10%
O=C(CSc1ccc(-c2ccc(-n3cccn3)cc2)nn1)Nc1ccc([N+](=O)[O-])cc1
 : -10%, -2%
CC(=O)c1ccc(S(=O)(=O)N(CCCO)Cc2cc3cc(C)ccc3[nH]c2=O)cc1
 : i, -10%
CC(C)Cc1nnc(NC(=O)CCC(=O)NC2CCCCCC2)s1
 : -21%, -6%
Cc1ccccc1S(=O)(=O)N1C(c2ccc(Cl)c(Cl)c2)CC=C(C(=O)O)C1c1cccc(Br)c1 (stereo unspecified)
 : -30%, ?
Cc1cccc(N2CCN(S(=O)(=O)c3ccc4c(c3)CCN4C(=O)CCC(=O)O)CC2C)c1 (stereo unspecified)
 : i, -7%
O=C(CSc1ccc2nnc(-c3ccccn3)n2n1)Nc1ccccc1F
 : i, -10%
Cc1ccc(-c2ccccc2C2=CC(=O)CC(C)(C)C2=O)cc1
 : -2%, -17%
COc1cc(C(=O)NCCC(=O)NC(C)C)cc(OC)c1OC
 : -5%, -2%
CCOc1ccccc1NC(=O)c1cccc(N2C(=O)CCC2=O)c1
 : 0%, -4%
CCOc1ccc(S(=O)(=O)NCCC(=O)N2CCCCCCC2)cc1
 : -17%, -7%
Cc1cccc(C(=O)Nc2c(C(=O)N(C)C)cnn2-c2ccccc2)c1
 : -10%, -4%
C=C1C([C@@H](O)C[C@H](C)C2O[C@@]3(CCCCO3)CC[C@H]2C)OC2CC[C@@]3(CC[C@@H](/C=C/[C@@H](C)C4CC(C)=C[C@]5(O4)O[C@H](C[C@@](C)(O)C(=O)O)CCC5O)O3)OC2[C@@H]1O (stereo partly specified)
 : -17%[2.01 µM], -9%[2.01 µM]

Going on with the list.
Value order: Vaccinia mCherry, Vaccinia Venus
O=c1oc(-c2ccccc2)c(-c2ccccc2)c2ccccc12
 : ?, -21%
COc1cccc(CC(NC(C)=O)C(=O)NC2CCN(S(=O)(=O)c3ccc(NC(C)=O)cc3)CC2)c1 (stereo unspecified)
 : i, -9%
O=C1/C(=C/c2ccc(O)cc2)CCc2ccc([N+](=O)[O-])cc21
 : i, -7%
CCCc1cc(=O)[nH]c(SCC(=O)N(CCC#N)c2ccc3c(c2)OCCO3)n1
 : -12%, -7%
COc1cc([N+](=O)[O-])ccc1NC(=O)Cn1ccsc1=N
 : i, -11%
C[C@@H]1CN([C@H](C)CO)C(=O)CCCn2nncc2CO[C@H]1CN(C)Cc1ccccc1C(=O)O
 : i, -7%
O=C(CN1CCN(Cc2ccc(F)cc2)C1=O)NCc1ccccc1Cl
 : 6%, 11%
COc1ccc(CNC(=O)C2COc3ccccc3O2)cc1 (stereo unspecified)
 : -23%, -15%
Cc1cc(=O)oc2cc(OCCC[n+]3ccccc3)ccc12
 : i, -10%
COC(=O)CS(=O)(=O)c1cc([N+](=O)[O-])ccc1NC(=O)OC
 : -2%, -8%
COC(=O)c1ccc(C)c(-n2c(=O)n(Cc3ccccc3)c(=O)c3[nH]cnc32)c1
 : -10%, -11%
CN(c1ccc(C(=O)NCCSC(C)(C)C)cc1)S(C)(=O)=O
 : -12%, -12%
COc1ccc(OC)c(NC(=O)N(C)CCc2c(C)nn(C)c2C)c1
 : -9%, 6%
COc1ccc(CNC(=O)Nc2nc(C(N)Cc3ccc(C(F)(F)F)cc3)cs2)cc1 (stereo unspecified)
 : ?, ?
COc1ccc(CNC(=O)c2cc(S(=O)(=O)N3CCCC3)cn2C)cc1
 : 13%, 4%

Continuation.
Value order: Vaccinia mCherry, Vaccinia Venus
CSc1ccc(CN2CCN(Cc3ccccc3Cl)CC2)cc1
 : -11%, -15%
CCCCC(=O)N/N=C(\C)CC(=O)Nc1cc(Cl)ccc1OC
 : -29%, -18%
C/C(=N\NC(=S)Nc1cccc(C)c1)c1ccccc1
 : -25%, -24%
O=C(Cc1ccc(-n2cccc2)cc1)N1CCc2ccccc21
 : ·, 0%
CCCCOc1ccc(C(=O)NCC(=O)OCC(=O)c2c(N)n(C)c(=O)n(C)c2=O)cc1
 : -14%, -5%
COCCC(=O)N1CCC(Oc2ccc(C(=O)N3CCCC(CCCO)C3)cc2)CC1 (stereo unspecified)
 : -12%, -17%
CN(C)C(=O)c1cccc(-c2cnc3c(NC=O)cc(-c4ccc(F)cc4)cn23)c1
 : ?, -25%
CC1=C(C(=O)N(C(C)C)C(C)C)CC(CC(=O)NCc2cccs2)C(=O)N1Cc1ccccc1 (stereo unspecified)
 : -2%, -25%
Cc1nc(-c2ccc(S(=O)(=O)NCc3ccc(F)cc3)cc2)co1
 : -1%, 0%
C(=C\c1ccccc1)/CN1CCN(C(c2cc3ccccc3o2)c2nnnn2C2CCCCC2)CC1 (stereo unspecified)
 : -9%, -9%
COc1ccc(C(=O)C(/C=N/O)=N/Nc2ccc(F)cc2)cc1
 : i, -17%
CCOc1ccc(CC(=O)Nc2ccc(-c3ccc4nnc(C)n4n3)cc2)cc1
 : -10%, 9%
CCn1cc(C(=O)N2CCN(c3cc(Cl)ccc3C)CC2)c2cc(OC)c(OC)cc2c1=O
 : ?, -28%
Cc1ccc2c(=O)cc(CSc3ccccc3)[nH]c2c1C
 : 8%, -10%
CCC(C)NC(=O)CSc1nnc(-c2ccncc2)n1-c1ccc(OC)cc1 (stereo unspecified)
 : -17%, -19%

Next section.
Value order: Vaccinia mCherry, Vaccinia Venus
CN(Cc1cccc(F)c1)CC(O)COCc1ccccc1Cl (stereo unspecified)
 : -7%, 1%
COc1ccc(OC)c(NC(=O)c2cc(-c3cc(F)ccc3OCC3CCCO3)n[nH]2)c1 (stereo unspecified)
 : i, -30%
CC(C)=CCc1c2c(c3occ(-c4ccc(O)cc4)c(=O)c3c1O)C=CC(C)(C)O2
 : ?, ?
COc1ccc(N2CCC(CNC(=S)Nc3c(C)cccc3C)C2)cc1 (stereo unspecified)
 : ?, -8%
CN(CC(=O)NCc1ccccc1)Cc1cccc(F)c1
 : i, -5%
COc1cccc(NC(=O)N(CCCN2CCOCC2)C(C)c2cc3cccc(OC)c3o2)c1 (stereo unspecified)
 : ·, -17%
CCOC(=O)c1c(S(=O)(=O)N2CCC(C(=O)Nc3cccc(C)n3)CC2)c(C)n(C)c1C
 : 5%, -2%
Cc1noc(C)c1COc1ccc(C(=O)OCc2nnc(-c3ccc(Cl)cc3)o2)cc1
 : -17%, -12%
CC1CCCCN1C(=O)CN1C(=O)c2ccccc2S1(=O)=O (stereo unspecified)
 : -12%, -7%
Cc1ccc(NC(=O)c2sc3nc(-c4cccs4)ccc3c2N)cc1F
 : -13%[7.34 µM], -9%[7.34 µM]
COc1ccc(S(=O)(=O)N2CCOC2CNC(=O)C(=O)NCc2ccccc2OC)cc1 (stereo unspecified)
 : -11%, -21%
O=C(CN1CCC(C(=O)c2cccc(Cl)c2)CC1)Nc1cccc(C(=O)O)c1
 : -5%, -7%
O=C(CSc1n[nH]c(=O)n1-c1cccnc1)N1CCOCC1
 : i, 2%
O=C(Nc1ccc2c(c1)OCO2)c1csc([C@@H]2O[C@H](CO)[C@H](O)[C@H](O)[C@H]2O)n1
 : 12%, -9%
COc1cc(-c2nc3n(n2)C(c2ccc(F)cc2)C(C(N)=O)=C(C)N3)cc(OC)c1OC (stereo unspecified)
 : -8%, 4%
Cc1ccc(CC(=O)N2CCN(c3ccccn3)CC2)cc1
 : -16%, -18%
Cc1occc1C(=O)N/N=C/C1=C(N2CCOCC2)C(=C/c2ccc(Cl)cc2Cl)/CC1
 : i, 7%
